HCMV UL50-53 inh = inhibitors of HCMV UL50-UL53 nuclear egress complex interaction; HTRF UL50-UL53 interaction, normalized percent inhibition; inhibition, % (no concentration beside the values); 190,000 tested, 0.15% active; AID 1918969;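 active = both replicates at 50% or more, plus weaker picks with an unusually low signal ratio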;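 also: stock transfer was 100 nL into about 20 µL; 0% = negative control wells and 100% = wells with untagged competitor protein; inactives centre near -12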
Sa growth inh = S. aureus growth inhibition; S. aureus RN4220 growth, OD600, 20 h, 42 °C; stronger effect = lower value; relative growth, % (concentration not given with the values); 170,000 tested, 0.53% active; AID 720641;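 active = growth at 42 °C up to 50% and 20 or more points under that at 30 °C, or under 10% at both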;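 also: 300 nL library stock went into each well; scaled to the means of positive and negative controls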
GIV-Gai inh = blocks GIV peptide binding to rat Galpha-i3 | percent of control (FP), % (test concentration not listed) | 210,000 tested, 0.42% active | Galpha-i3/FITC-GIV peptide fluorescence polarization, 90 min; stronger effect = lower value; scaled: aluminum fluoride 0%, vehicle 100% | AID 1224905;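 active = replicate mean at 85% of control or lower, very high polarization wells dropped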;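 also: wells of about 15 µL received 100 nL stock; the first replicate is given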
Target sequence (P08753 whole entry, looked up): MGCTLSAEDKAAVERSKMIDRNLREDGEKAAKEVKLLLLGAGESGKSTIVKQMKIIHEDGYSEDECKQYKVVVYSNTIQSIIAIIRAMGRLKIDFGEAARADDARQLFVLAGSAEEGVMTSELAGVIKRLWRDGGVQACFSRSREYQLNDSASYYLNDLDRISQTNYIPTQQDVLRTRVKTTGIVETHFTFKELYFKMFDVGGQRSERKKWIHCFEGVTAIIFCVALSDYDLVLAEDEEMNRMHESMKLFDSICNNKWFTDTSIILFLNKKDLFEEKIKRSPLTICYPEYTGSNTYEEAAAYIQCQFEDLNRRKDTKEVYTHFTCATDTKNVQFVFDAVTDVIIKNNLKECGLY
Sa growth inh second temp = second read-out of Sa growth inh, no call of its own (marks repeat the call); relative growth, %; measured here: growth at 30 °C;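 optical density after 20 h as mean of two plates; 100% = untreated growth and lower means inhibition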
* hit, by the source's call; nt = no result given; & = joins results of further samples.

(1) CCNC(=O)c1ccc(NS(C)(=O)=O)cc1
(2) COc1ccc(C(=O)Oc2c(Sc3ccc(C)cc3)c(C)nn2C(C)(C)C)c(OC)c1
(3) COc1cc(-c2c(C#N)c(N)n3c(nc4ccccc43)c2C#N)c(Cl)cc1O
(4) COc1ccc(CCNC(=O)c2ccc3c(Cl)c4c(nc3c2)CCC4)cc1OC
(5) COc1ccc(NC(=O)Cn2c(=O)ccc3cc(S(=O)(=O)N4CCCC4)ccc32)cc1Cl
(6) C=CC(=O)NC1(CCC)CCCCC1
(7) Cc1cc(N2CCCCC2)nc2ccc(NC(=O)CCC(=O)N3CCN(c4ccccc4)CC3)cc12
(8) COC(=O)c1cc(S(=O)(=O)N2CCN(c3cccc(C)c3)C(C)C2)c[nH]1 (configuration not stated)
compound no.	1	2	3	4	5	6	7	8
HCMV UL50-53 inh	-14	-5	-20	-2	nt	-10	-8	nt
Sa growth inh	111	107	nt	97	116	102	93	112
Sa growth inh second temp	94	97	nt	93	97	100	84	87
GIV-Gai inh	102	102	102	107	111	105	105	105

Six entries from above, ordered by their value in Sa growth inh second temp, ascending:
entry	SMILES	Sa growth inh second temp
7	Cc1cc(N2CCCCC2)nc2ccc(NC(=O)CCC(=O)N3CCN(c4ccccc4)CC3)cc12	84
8	COC(=O)c1cc(S(=O)(=O)N2CCN(c3cccc(C)c3)C(C)C2)c[nH]1 (configuration not stated)	87
4	COc1ccc(CCNC(=O)c2ccc3c(Cl)c4c(nc3c2)CCC4)cc1OC	93
1	CCNC(=O)c1ccc(NS(C)(=O)=O)cc1	94
5	COc1ccc(NC(=O)Cn2c(=O)ccc3cc(S(=O)(=O)N4CCCC4)ccc32)cc1Cl	97
6	C=CC(=O)NC1(CCC)CCCCC1	100

(listing goes on)
(9) Cc1ccc2nc(Cl)c3cc(C(=O)NCCN4CCN(C)CC4)sc3c2c1
(10) O=C(O)CSC(=S)N1CCCC1
(11) CCc1ccccc1NC(=O)Cn1c(-c2nonc2N)nc2ccccc21
(12) O=C(N/N=C/c1ccc[nH]1)c1cccc(Cl)c1
(13) Cc1nn(-c2ccccc2)nc1C(=O)NC(=O)N1CC(C)OC(C)C1 (configuration not stated)
(14) CCOc1ccc(CCNC(=O)CN2C(=O)COc3ccc(S(=O)(=O)N(CC)CC)cc32)cc1
(15) COCCCNC(=O)c1sc2nc3n(c(=O)c2c1C)CCC3
(16) COc1ccc(CCNS(=O)(=O)c2ccc(C)cc2)cc1OC
compound no.	9	10	11	12	13	14	15	16
HCMV UL50-53 inh	nt	-8	-34	-3	-15	19	-7	12
Sa growth inh	134	99	99	103	100	93	127	98
Sa growth inh second temp	107	76	85	98	85	95	92	99
GIV-Gai inh	145	102	101	123	99	104	100	108

Next part; it opens with the 4 that closed the last part.
(13) Cc1nn(-c2ccccc2)nc1C(=O)NC(=O)N1CC(C)OC(C)C1 (configuration not stated)
(14) CCOc1ccc(CCNC(=O)CN2C(=O)COc3ccc(S(=O)(=O)N(CC)CC)cc32)cc1
(15) COCCCNC(=O)c1sc2nc3n(c(=O)c2c1C)CCC3
(16) COc1ccc(CCNS(=O)(=O)c2ccc(C)cc2)cc1OC
(17) Cc1cc(C)n(C(=O)CNC(=O)c2cccs2)n1
(18) O=C(Nc1nnc(S(=O)(=O)N2CCCCCC2)s1)c1ccccc1F
(19) CCOc1ccc(CNC(=O)C2CCCN2S(=O)(=O)c2ccc3c(c2)CCCC(=O)N3)cc1 (configuration not stated)
(20) O=C(NC(=O)N1CCOCC1)c1ccc(S(=O)(=O)N2CCOCC2)cc1
(21) CCC1CN(C(=O)N2CCC(C(=O)NCc3ccco3)CC2)c2ccccc2O1 (configuration not stated)
(22) COc1ccc(N2CCN(S(=O)(=O)CCNC(=O)COc3cccc(OC)c3)CC2)cc1
(23) COc1ccc(C2C(=O)N(C3CCC(C)CC3)CC(=O)N2Cc2ccc(C)cc2)cc1OC (configuration not stated)
(24) CC1CCN(Cc2nc(-c3cc(C(F)(F)F)cc(C(F)(F)F)c3)no2)CC1
compound no.	13	14	15	16	17	18	19	20	21	22	23	24
HCMV UL50-53 inh	-15	19	-7	12	nt	7	-8&-12	9	-13	nt	nt	5
Sa growth inh	100	93	127	98	76	102	104	87	111	96	125	113
Sa growth inh second temp	85	95	92	99	79	29	90	93	91	84	89	97
GIV-Gai inh	99	104	100	108	101	103	99&113	108	102	106	99	109

(25) CCOc1ccccc1-c1noc(-c2cccc(OC)c2)n1
(26) Cc1noc(C)c1CSc1nc(C)c(C)n1C1CCCCC1
(27) CCC(=O)N1CCN(c2nc3ccc(C)cc3cc2-c2noc(-c3ccccc3)n2)CC1
(28) CCCn1cc(S(=O)(=O)c2ccc(C)cc2)c(=O)c2cc(F)c(N3CCCC3)cc21
(29) CN(C)c1ccc(C(CNS(=O)(=O)c2ccccc2)N2CCc3ccccc32)cc1 (configuration not stated)
(30) Clc1ccc(OCCCn2c(COc3ccccc3)nc3ccccc32)cc1
(31) CC(=O)N1CCN(C2=Nc3cccc4cccc2c34)CC1
(32) CC(C)(C)c1cc(CN2C(=O)c3ccccc3C2=O)cc(C(C)(C)C)c1O
compound no.	25	26	27	28	29	30	31	32
HCMV UL50-53 inh	-6	4	-10	nt	nt	-17	-103	13
Sa growth inh	125	106	nt	102	115	nt	77	94
Sa growth inh second temp	102	99	nt	88	92	nt	86	102
GIV-Gai inh	106	nt	99	112	99	95	nt	108

(33) O=C(Nc1cccnc1)c1ncoc1-c1ccc2ccccc2c1
(34) CC1(C(=O)NC2CCCC2)CCC(=O)N1Cc1ccccc1Cl (configuration not stated)
(35) CC(C)(C)P(=Nc1ccc(Br)cc1)(N1CCOCC1)N1CCOCC1
(36) CC(C)Cn1c(=O)[nH]c2ccccc21
(37) CSc1ccc(CNC(=O)Cn2nc(N3CCN(c4ccccc4)CC3)ccc2=O)cc1
(38) COc1cccc(CNC(=O)CCCn2nc(C)c3sc4ccccc4c3c2=O)c1
(39) O=C(O)c1cccc(N=C2NC(=O)C(CO)(CO)S2)c1
(40) CC(C)Cn1cc(C(=O)N2CCN(c3cccc(Cl)c3)CC2)c2c3ccccc3n(C)c2c1=O
compound no.	33	34	35	36	37	38	39	40
HCMV UL50-53 inh	-7	-20	-32	15	nt	-17	-2	7
Sa growth inh	105	nt	112	105	91	113	97	102
Sa growth inh second temp	81	nt	96	93	89	80	104	72
GIV-Gai inh	98	102	nt	105	102	103	93	112

(41) Cc1cc2cc(CNS(=O)(=O)c3ccc(Cl)cc3)ccc2n1C
(42) CC1CCC(C)C(NC(=O)c2ccc(I)cc2)C1 (configuration not stated)
(43) Cc1occc1C(=O)N/N=C/C=C/c1ccccc1
(44) CS(=O)(=O)c1cc2cc(Cl)ccc2oc1=O
(45) CC(C)NC(=O)CSc1nc2ccccc2c(=O)n1Cc1ccc(C(=O)NC(C)C)cc1
(46) COc1ccc(CCNC(=O)CSc2nc3ccccc3nc2Cc2ccc(C)cc2)cc1OC
(47) CCc1cc(=O)oc2cc(O)cc(O)c12
(48) CCOc1ccccc1CNC(=O)c1ccc(Cn2c(=O)c3cccn3c3cccnc32)cc1
compound no.	41	42	43	44	45	46	47	48
HCMV UL50-53 inh	-33	8	-76	-78	nt	-30	2	nt
Sa growth inh	94	97	94	96	107	78	61	87
Sa growth inh second temp	93	105	91	91	84	64	51	82
GIV-Gai inh	105	nt	103	95	103	105	110	103

Values by screen from the list.
Compounds 16–19 in GIV-Gai inh: 108, 101, 103, 99&113
Compounds 16–19 in Sa growth inh second temp: 99, 79, 29, 90

Going on with the list:
(49) COc1nc(NCCc2ccc(OC)c(OC)c2)nc(Nc2ccc(Cl)cc2)n1
(50) Cc1n[nH]c(C)c1Sc1ccc(C(F)(F)F)cn1
(51) O=C(N/C(=C/c1ccccc1)C(=O)N1CCc2ccccc2C1)c1ccccc1
(52) CCCCc1cc(=O)oc2cc3oc4c(c3cc12)CCCC4
(53) COc1ccccc1CN1CCC(C(=O)NCc2ccc(C)cc2)CC1
(54) CCOc1ccc(Nc2c(S(=O)(=O)c3ccccc3)cnc3ccc(CC)cc23)cc1
(55) CSc1cccc2c(SC)cccc12
(56) COc1ccccc1Cn1cc(C(=O)c2ccc(C)cc2)c(=O)c2cc3c(cc21)OCCO3
compound no.	49	50	51	52	53	54	55	56
HCMV UL50-53 inh	nt	4	6	nt	5	7	-16	-42
Sa growth inh	125	117	69	85	101	82	93	102
Sa growth inh second temp	69	89	90	90	89	78	87	84
GIV-Gai inh	105	102	nt	103	101	107	nt	95

(57) CNC(=O)COc1ccc(Oc2ccc(C)cc2)cc1
(58) CN(C)CCNC(=O)c1ccc2c(c1)N(Cc1ccccc1)C(=O)c1ccccc1S2(=O)=O
(59) CCN1C(C(=O)c2ccccc2)=C(OC(=O)C(C)C)c2ccccc2S1(=O)=O
(60) Cc1nccc2[nH]c(=O)c(C(=O)N3CCc4ccccc43)cc12
(61) C=C(C)Cn1c(CCn2c3ccccc3c3ccccc32)nnc1SCC(=O)OC
(62) Cc1ccc2nc(NC(=O)c3nc(SCc4ccccc4F)ncc3Cl)sc2c1
(63) COc1ccc(-c2noc(CNC(=O)CC(C)(C)C)n2)cc1
(64) Cn1nnnc1SCc1ccc(C(=O)Nc2ccc(Br)cc2)cc1
compound no.	57	58	59	60	61	62	63	64
HCMV UL50-53 inh	-20	-40	-6	4	4	-25	-14	-10
Sa growth inh	97	111	17	97	102	98	93	109
Sa growth inh second temp	82	93	26	84	92	85	84	93
GIV-Gai inh	nt	105	103	106	106	99	97	108

Brought forward from above: 3 entries; new compounds follow.
(62) Cc1ccc2nc(NC(=O)c3nc(SCc4ccccc4F)ncc3Cl)sc2c1
(63) COc1ccc(-c2noc(CNC(=O)CC(C)(C)C)n2)cc1
(64) Cn1nnnc1SCc1ccc(C(=O)Nc2ccc(Br)cc2)cc1
(65) O=C(Nc1ccc(Cl)cc1)c1sccc1Cl
(66) CC(C)c1ccc(OCC(=O)NC(Cc2c[nH]c3ccccc23)C(=O)O)cc1 (configuration not stated)
(67) COc1ccc(C2CC(=O)Nc3c2c(C)nn3-c2nncc(-c3ccccc3)n2)c(OC)c1OC (configuration not stated)
(68) CC(C(=O)O)n1c(=S)[nH]c2ccccc2c1=O (configuration not stated)
(69) O=C(NCc1ccc2c(c1)CCN2C(=O)c1ccc(Cl)cc1)c1ccco1
(70) CC(C)N1CCCC(CN)C1 (configuration not stated)
(71) CCOC(=O)c1c(N)sc(C(=O)N2CCOCC2)c1C
(72) O=C(Nc1nc2n(n1)C(c1ccc(F)cc1)C=C(c1ccc(Cl)cc1)N2)c1ccc([N+](=O)[O-])cc1 (configuration not stated)
compound no.	62	63	64	65	66	67	68	69	70	71	72
HCMV UL50-53 inh	-25	-14	-10	-21	-34	-45	1	nt	-12	8	-47
Sa growth inh	98	93	109	93	112	95	91	88	89	62	105
Sa growth inh second temp	85	84	93	69	93	93	95	88	88	90	76
GIV-Gai inh	99	97	108	101	106	100	nt	95	101	nt	106

(73) N#CC1=C(N)NC(SCC(N)=O)=C(C#N)C1c1ccccc1Cl (configuration not stated)
(74) O=C(COc1ccc(C(=O)c2ccccc2)cc1)NCC1CCCCC1
(75) Nc1c(C(=O)NCc2ccccc2)nnn1Cc1ccccc1
(76) Clc1ccc(-c2cc3c(N4CCN(Cc5ccccc5)CC4)nccn3n2)cc1
(77) O=C(COc1ccccc1)OCc1cc(=O)n2nc(C3CC3)sc2n1
(78) Cc1ccc(NC(=O)CSc2nnc(-c3cccnc3)o2)cc1
(79) S=C(Cc1ccccc1)N1CCCCC1
(80) Cc1cn[nH]c1
compound no.	73	74	75	76	77	78	79	80
HCMV UL50-53 inh	-18	-9	-8	-5	nt	-11	5	-41&-3
Sa growth inh	84	95	95	nt	83	nt	92	91
Sa growth inh second temp	69	90	95	nt	87	nt	94	89
GIV-Gai inh	nt	nt	102	107	109	98	103	104

(81) CCOC(=O)c1ccc2c(c1)N(Cc1nc(-c3ccccc3)oc1C)C(=O)c1ccccc1S2(=O)=O
(82) N#C/C(=N/O)c1nc2ccccc2s1
(83) CCc1ccccc1NC(=O)C1CCCN(c2ncnc3onc(C)c23)C1 (configuration not stated)
(84) COc1ccc(SCC(=O)c2ccc(O)cc2O)cc1
(85) Cc1ccc(C(=O)NCCn2cccc2)cc1
(86) O=c1ccc2cc(S(=O)(=O)NCc3ccc(Cl)cc3)ccc2[nH]1
(87) COC(=O)c1sc(N2C(=O)c3oc4cc(C)c(C)cc4c(=O)c3C2c2ccccc2F)nc1C (configuration not stated)
(88) O=C(Nc1ccc(-n2cnnn2)cc1)C1(Cc2nc3ccccc3s2)CCCC1
(89) Cc1cc(C)nc(NC2=NCC(=O)N2c2ccc(Oc3ccccc3)cc2)n1
(90) Cc1ccc(N(CC(=O)N2CCCCCC2)S(=O)(=O)c2c(C)noc2C)cc1
compound no.	81	82	83	84	85	86	87	88	89	90
HCMV UL50-53 inh	-7	-40	nt	3	-1	nt	-5	-7	-3	nt
Sa growth inh	nt	41	93	91	105	132	80	93	100	131
Sa growth inh second temp	nt	24	85	60	92	82	90	92	91	87
GIV-Gai inh	99	nt	98	nt	99	105	96	nt	109	106

Screening results (PubChem BioAssay)
